# High-throughput results deposited in PubChem by Fisher Drug Discovery Resource Center.
# NPYLR7 agonist: activates Aedes aegypti NPYLR7 receptor. hit rate 0.15% among 270,000. activation, % at 10 µM. HEK293T NPYLR7/Galpha15, GCaMP6s calcium fluorescence; in the data active means activation above about 40%;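 further: 0% = vehicle and 100% = reference agonist at the receptor; some compounds past the cut are filed as inactive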
# NPYLR7 agonist max-min: also measured in NPYLR7 agonist; calls as there; activation, %; measured here: Max-Min RFU normalised activation; some inactives read as strong as hits;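 span of the calcium signal over five minutes; 0% = vehicle and 100% = native peptide agonist; compound fluorescence can raise it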
# Active calls of the source: *; & = joins results of further samples. This is a subset; the hit share may differ from the screen's.
SMILES,NPYLR7 agonist,NPYLR7 agonist max-min
Cn1nccc1C(=O)NC1CCCc2nc(-c3ccccc3)ncc21 (stereo not drawn),26,13
O=C(CN1CCN(C(=O)CCc2ncc(-c3ccc(F)cc3F)o2)CC1)Nc1ccc(F)cc1,3,0
Nc1cc(-c2cccc(Cl)c2)nn1-c1ccc(C(=O)NCCc2ccccc2F)cc1,14,4
CCN(CC)CCn1c(NC(=O)C2CCN(S(C)(=O)=O)CC2)nc2ccccc21,10,4
O=C(Nc1nnc(-c2ccccn2)s1)C1CCCCC1C(F)(F)F (stereo not drawn),1,1
CCCC(=O)N1CCC1(C)C(=O)NS(=O)(=O)c1cc2c(cc1C)CCCS2(=O)=O (stereo not drawn),-1,0
CCN(CC)S(=O)(=O)c1cc(C(=O)Nc2cc(F)cc(F)c2)n(C)c1,-5,-8
CCCCCOc1ccc(C(=O)N(C)C2CCN(C)CC2)cc1OCCCCC,-6,-9
COc1cccc(C(CN2CCN(C(=O)NCC3CCCCC3)CC2)OCc2ccc(C#N)cc2)c1 (stereo not drawn),-2,9
CCCCCCn1c(CN2CCN(c3ccc(F)cc3)CC2)nc2c1c(=O)n(C)c(=O)n2C,9,3
O=c1[nH]c2ccc(Cl)cc2c(-c2ccccc2)c1Oc1cccc2cccnc12,5,2
CC(=O)NC(C)(c1ccccc1)c1nc(-c2cncnc2)cs1 (stereo not drawn),5,0
CCOc1ccc(C(=O)C2CC(=O)Nc3c2c(C2CC2)nn3C)cc1OCC (stereo not drawn),-5,-6
CCc1ccc(Cn2ccc3c(-c4ccc(OC)c(OC)c4)c(OC(=O)N(CC)CC)ccc32)cc1,12,11
COCCCN(CC(=O)N(CCc1c[nH]c2ccccc12)Cc1ccc(OC)c(OC)c1)C(=O)c1cc(OC)cc(OC)c1,-2,-3
Cc1cc(C)cc(C(=O)Oc2coc(CSc3nc(C)cs3)cc2=O)c1,2,1
O=C(NCCc1cnc2ccccn12)c1cc2n(n1)CCNC2,6,4
CCc1nc2c(OCc3ccc(C(=O)N(C)C)cc3)cccn2c1N(C)C(=O)Nc1ccccc1OC,3,-8
CCOC(=O)c1cnc(-c2cccc(C(F)(F)F)c2)nc1NCc1cccs1,-6,-9
CCCCn1c(-c2ccc(OC)c(OC)c2)nc2ccccc21,-5,-15
CCOC(=O)C(Cc1cccc(N2CCN(C(=O)c3ccccc3C(F)(F)F)CC2)c1)OC (stereo not drawn),2,7
O=C(CN1C(=O)NC2(CCCCCC2)C1=O)NCC1CCCCC1,2,1
CCOC(=O)c1sc(NC(=O)c2ccc(C)o2)nc1C,0,1
Cc1ccc(C2(O)CCN(C(=O)c3ccccc3-c3ncc[nH]3)CC2)nc1,8,5
O=C(NCCOc1ccccc1)c1ccc(-c2cc(-c3ccc(Cl)cc3Cl)[nH]n2)cc1,-2,0
C1=C(N2CCOCC2)/C(=C/c2nc3ccccc3[nH]2)CC1,14,4
CC(=O)OC[C@@]1(O)C[C@@]23CC[C@@H]4c5ccoc5CC[C@@]4(C)[C@@H]2CCC1C3,3,2
Cc1ccc(-c2ccccc2CN2CCN(Cc3ccsc3)C(CCO)C2)o1 (stereo not drawn),6,3
CCS(=O)(=O)N1Cc2ccccc2CC1C(=O)N=c1sc2ccccc2n1C (stereo not drawn),-4,-5
CCOc1ccc(NC(=O)Cn2cc(OC)c(=O)cc2CSc2nc(C)cc(C)n2)cc1,-1,-7
COc1ccccc1NC(=O)c1csc(Nc2cccc(C)n2)n1,8,4
Oc1oc(-c2ccc(Cl)cc2)nc1C=Nc1cccc2ccccc12,-5,-9
COc1ccc(CNC(=O)C2(C)CCCN(C(C)C)C2)cc1 (stereo not drawn),0,-3
Cc1nc2sccn2c(=O)c1NC(=O)c1ccc(S(=O)(=O)N(C)C)cc1,2,-1
O=C(CCc1cccnc1)N1CCc2ccc(Br)cc21,18,11
CC(C)c1cc(=O)[nH]c(-n2nc(-c3cccs3)cc2NC(=O)c2cc3ccccc3o2)n1,-2,-4
CCN(Cc1ccncc1)C1CCCN(C(=O)c2cnn(Cc3ccccc3)c2)C1 (stereo not drawn),1,0
CCOC(=O)C1(Cc2ccccc2Cl)CCN(S(=O)(=O)c2cc(C)cs2)CC1,0,12
O=C(OCc1csc(-c2ccccc2)n1)c1cccc(O)c1,1,-2
COc1ccc2c(c1)CCc1cc(CCC(=O)NCCC3CCCN3C)n(CCc3cccc(F)c3)c1-2 (stereo not drawn),1,2

# Part of the list above in order of molecular weight, ascending:
SMILES,NPYLR7 agonist,NPYLR7 agonist max-min
C1=C(N2CCOCC2)/C(=C/c2nc3ccccc3[nH]2)CC1,14,4
COc1ccc(CNC(=O)C2(C)CCCN(C(C)C)C2)cc1 (stereo not drawn),0,-3
O=C(CCc1cccnc1)N1CCc2ccc(Br)cc21,18,11
O=C(CN1C(=O)NC2(CCCCCC2)C1=O)NCC1CCCCC1,2,1
COc1ccccc1NC(=O)c1csc(Nc2cccc(C)n2)n1,8,4
CC(=O)OC[C@@]1(O)C[C@@]23CC[C@@H]4c5ccoc5CC[C@@]4(C)[C@@H]2CCC1C3,3,2
Cc1ccc(C2(O)CCN(C(=O)c3ccccc3-c3ncc[nH]3)CC2)nc1,8,5
Cc1nc2sccn2c(=O)c1NC(=O)c1ccc(S(=O)(=O)N(C)C)cc1,2,-1
Cc1ccc(-c2ccccc2CN2CCN(Cc3ccsc3)C(CCO)C2)o1 (stereo not drawn),6,3
CCN(Cc1ccncc1)C1CCCN(C(=O)c2cnn(Cc3ccccc3)c2)C1 (stereo not drawn),1,0
CCS(=O)(=O)N1Cc2ccccc2CC1C(=O)N=c1sc2ccccc2n1C (stereo not drawn),-4,-5
CCOC(=O)C1(Cc2ccccc2Cl)CCN(S(=O)(=O)c2cc(C)cs2)CC1,0,12
O=C(NCCOc1ccccc1)c1ccc(-c2cc(-c3ccc(Cl)cc3Cl)[nH]n2)cc1,-2,0
CCOC(=O)C(Cc1cccc(N2CCN(C(=O)c3ccccc3C(F)(F)F)CC2)c1)OC (stereo not drawn),2,7
COc1ccc2c(c1)CCc1cc(CCC(=O)NCCC3CCCN3C)n(CCc3cccc(F)c3)c1-2 (stereo not drawn),1,2

# The main list resumes; the two compounds before the break are reprinted first.
SMILES,NPYLR7 agonist,NPYLR7 agonist max-min
O=C(OCc1csc(-c2ccccc2)n1)c1cccc(O)c1,1,-2
COc1ccc2c(c1)CCc1cc(CCC(=O)NCCC3CCCN3C)n(CCc3cccc(F)c3)c1-2 (stereo not drawn),1,2
CCOc1ccc(-c2nccn2CCc2cn[nH]c2)cn1,0,0
COc1ccc2c(c1)-c1sc(C(=O)NC3CCc4ccccc43)cc1CC2 (stereo not drawn),3,4
COCC(=O)Nc1ccc(-c2c(-c3ccc(F)cc3)nn(-c3cc(C)ccc3C)c2OC(C)=O)cc1,-3,0
COc1cccc(-c2cc(CNC(=O)C3CCCC3)no2)c1,1,-1
CCN(CC(=O)N1CCc2sccc2C1c1ccccc1C)S(=O)(=O)c1ccc(Cl)cc1 (stereo not drawn),0,7
O=C(NCC(=O)N1CCOC(COc2cccc(C(F)(F)F)c2)C1)c1ccco1 (stereo not drawn),8,17
Brc1ccccc1C=NNc1nncc2ccccc12,4,2
CCn1c(CC2CCNCC2)nn(Cc2cccc3ccccc23)c1=O,6,1
Cc1[nH]cnc1-c1c(-c2ccccc2)ncn1Cc1cccnc1-n1cncn1,9,-4
O=C(NCC1(O)CCSC1)c1cc2ccccc2s1 (stereo not drawn),-1,-1
Oc1[nH]c2ccccc2c1N=Nc1cccc(Cl)c1Cl,-6,-9
CN(C)CCN(C(=O)C1CCCCC1)c1nc2ccccc2s1,-3,-7
O=S(=O)(c1ccc(Cl)cc1)N1CCN(Cc2ccc(O)c3ncccc23)CC1,-2,-7
Cc1sc2nc(C(C)C)nc(N3CCN(C(=O)N(C)C)CC3)c2c1C,-16,-15
CC1CCCN(CC(=O)NCCN2C(=O)C(=Cc3ccc4c(c3)OCO4)SC2=S)C1 (stereo not drawn),0,3
COc1ccc(N2C(=O)CC(N3CCN(CCO)CC3)C2=O)cc1 (stereo not drawn),0,-1
C=CCNC(c1ccccc1)c1ccccc1,7,5
CC1=NN(c2ccccc2)C(=O)/C1=C\c1ccc(Oc2ccc([N+](=O)[O-])cc2[N+](=O)[O-])cc1,11,16
Cc1ccc(C(=O)c2oc3ccccc3c2N)cc1,-5,-10
CN(Cc1cnn(C)c1)C(=O)C1CCCCC1C(=O)O (stereo not drawn),-1,-5
COc1ccc(CC(=O)Nc2c(-c3ccc(OC)cc3)nc3cc(C)ccn23)cc1,-10,-3
Cc1cc2nn(CN(C)Cc3ccccc3)c(=S)n2c2ccccc12,3,1
COCc1cc(=O)[nH]c(N=C(NC(=O)c2ccccc2)Nc2ccc(F)cc2)n1,-17,-22
Cc1[nH]cnc1-c1nccn1C(C)c1cccs1 (stereo not drawn),22,22
CC1CC1c1ccc(CN(C)C(=O)Nc2cccnc2)o1 (stereo not drawn),6,2
CC1CCCCN1CC(=O)N1CC(C(N)=O)Oc2ccccc21 (stereo not drawn),-1,0
CSc1ccccc1NC(=O)c1cc(-c2ccc(Cl)cc2)nc2ccccc12,4,14
COc1cc(-c2cc(C(=O)NCc3cc(F)cc(F)c3)c3ccccc3n2)cc(OC)c1OC,12,2
COCCCN(Cc1csc(COc2ccc(Cl)cc2)n1)C(=O)COC,0,8
COC(=O)Cn1c(=O)c2c(nc3n(C(C)C)c(C)c(C)n23)n(C)c1=O,-5,-8
CCN1C(=O)C(=Cc2ccccn2)SC1=S,-2,-7
Cc1nc2n(n1)C(=O)C(C(c1ccc([N+](=O)[O-])cc1)N1CCc3ccccc3C1)S2 (stereo not drawn),9,9
O=C(Nc1cccc(-c2nc3cc(Cl)ccc3o2)c1)c1ccc([N+](=O)[O-])cc1,-4,-7
COC(=O)c1cc2n(n1)CCCN(C(=O)CCN1CCCCO1)C2,-3,-7
COc1ccc(-c2c(C)nn3c(N4CCOCC4)cc(C)nc23)cc1OC,3,3
Cc1ccccc1NC(=O)N1CCN(Cc2cc3n(n2)CCNC3)CC1,4,4
COCc1c(Br)c(C)nc(OCC(=O)N/N=C\c2cc(C)n(-c3ccc(Br)cc3)c2C)c1C#N,6,14
CC(Oc1ccc2c(c1)[nH]c1ccccc12)C(=O)N1CCCC1 (stereo not drawn),-3,-5
CCc1cccc2c(C(CC(=O)N3CCCC3)c3cccc(OC)c3OC)c[nH]c12 (stereo not drawn),-2,6
COCC1(NC(=O)Nc2nc(-c3ccccc3)ns2)CCCC1,1,-1
Cc1ccccc1SC1CCN(C(=O)c2cn(CC3CCCO3)nn2)CC1 (stereo not drawn),12,9
CCC(Oc1ccccc1)c1nc(CC2CCN(C)CC2)no1 (stereo not drawn),6,4
CCC(C(=O)Nc1nc2cccc(-c3cccc(OC(F)(F)F)c3)n2n1)c1ccccc1 (stereo not drawn),-2,-8
COCCN(CC(=O)N(Cc1ccc(F)cc1)Cc1cccs1)C(=O)c1cccc(C(F)(F)F)c1,15,15
COC(=O)C(C)(Cc1ccccc1)NC(=O)c1ccc(CSc2ccc3ccccc3n2)cc1 (stereo not drawn),-10,-18
Cc1nc2sc(C(=O)OCc3nc4ccsc4c(=O)[nH]3)c(C)c2c(=O)[nH]1,1,2
O=C1NC(=S)S/C1=C/c1ccc(OCc2ccccc2)cc1,2,-2
COc1ccc(C(=O)N2CCC(Cc3ccc(C(F)(F)F)cc3)CC2)cc1OC,1,-5
CC(=O)N=c1c(C#N)cc2c(=O)n3ccccc3nc2n1C(C)C,0,6
COC(=O)COc1ccc(-c2cncnc2)cc1CN1C[C@@H]2[C@@H]3CC[C@@H](C3)[C@@H]2C1,6,5
CN(C)C12C=CC(c3ccccc31)c1ccccc12,-3,-3
c1ccc(Cn2nnc3c(N4CCNCC4)ncnc32)cc1,1,2
Cc1ccc2c(n1)-n1c(nc3cc(C(F)(F)F)ccc3c1=O)CO2,2,2
CCC(=O)NC(N)=Nc1nc(OC)c2cc(C)ccc2n1,3,-2
O=C(NCCc1cccnc1)c1coc(COc2ccc(F)cc2Cl)n1,17,7
CC(=O)Oc1c(-c2ccc(NC(=O)c3cccc(Cl)c3)cc2)c(-c2ccc3c(c2)OCO3)nn1-c1ccc(C)cc1,5,9
CN(C)c1ccc(C(=O)N2CCN(c3ncccc3C(=O)NCc3ccc4c(c3)OCO4)CC2)cc1,28,16
O=C(CC(c1ccc2c(c1)OCO2)c1c[nH]c2ccccc12)N1CCCC1 (stereo not drawn),0,11
CCC(CO)n1cc2c(c1-c1ccccc1)c(=O)n(C)c(=O)n2C (stereo not drawn),17,6
C=CCOCC(O)CN(Cc1c(-c2ccccc2)nn(C)c1Oc1ccc(Cl)cc1)CC1CC1 (stereo not drawn),3,2
# Next part
SMILES,NPYLR7 agonist,NPYLR7 agonist max-min
CC(C)c1cccc(-c2nc3c(NCCc4ccncc4)nccc3[nH]2)c1,-5,-8
Cc1ccc2oc(=O)n(CCC(=O)N3CCC4(CN(C)C(=O)O4)C3)c2c1 (stereo not drawn),2,1
COc1ccc(CCN(C)C(=O)C(C)(C)Oc2ccc(C(N)=O)cc2)cc1OC,-1,-13
Cc1cccc(Cn2cc(S(=O)(=O)c3ccccc3)c(=O)c3cc(F)c(N4CCOCC4)cc32)c1,9,12
O=C(Nc1c(-c2cccc(F)c2)nc2ccccn12)C1CCCC1,9,7
NC(=O)c1ncn([C@@H]2O[C@H](CO)[C@@H](O)[C@H]2O)n1,11&1&-9,-2&-18&-11
Cc1cc(Cl)ccc1N=Cc1nc(-c2ccccc2F)oc1O,-2,-7
Cc1cc(NC(=O)CCCSc2ccc(NC(=O)c3ccco3)nn2)no1,0,0
CN1CC(=O)N(CN2CCN(c3ccc(F)cc3)CC2)C1=O,2,2
CCOC(=O)N1CCC(N2CCN(Cc3cccc(OC)c3)C(CCO)C2)CC1 (stereo not drawn),6,3
C#CCNC(=O)c1ccccc1NC(=O)c1ccc(OC)cc1,9,1
COc1ccc(Cl)cc1S(=O)(=O)N1CCC2(CCCNC2)C1 (stereo not drawn),-4,-5
O=C(OCc1ccccc1)[C@@H]1CCCN1C(=O)c1ccc(CSc2nnc3ccccn23)cc1,10,9
O=C(CN1CCc2sccc2C1c1ccccc1)N1CCN(C(=O)Nc2cccc(Cl)c2)CC1 (stereo not drawn),7,-2
CC(C)CN(CC(=O)N(Cc1cccn1Cc1ccccc1Cl)C1CCCCC1)C(=O)c1ccc([N+](=O)[O-])cc1,-10,-15
